Bioassay records as filed in PubChem.
SmPrx2 inh = Schistosoma mansoni Prx2 inhibition. AID 448. S. mansoni Prx2 activity coupled to TGR/GSH (TGR is thioredoxin glutathione reductase), NADPH fluorescence loss, qHTS; some inactives read as strong as hits. Potency, µM. 65,000 tested, 0.07% active; active means full or partial inhibition curve with a strong effect at the top dose; inconclusive means weaker partial or single-point curve; inactive means no accepted curve; note: series up to 57 µM; many of its hits are not listed in these tables
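qHTS, coupled TGR/Prx2 format; 15 min compound preincubation at RT; reaction started with H2O2 (2.5 mM aliquot); kinetic NADPH fluorescence decrease, ex 365/em 450 nm.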
Anthrax LT inh = anthrax lethal toxin internalization inhibition | Cells, anthrax lethal toxin internalization, FRET ratio (460/530) | Potency, µM (doses to about 40 µM), inactives show top-dose activity change, negative = inhibition, most hits filed as inhibitors | 70,000 tested, 0.67% active; active = well fitted falling ratio curve with the 530 nm signal flat; inconclusive = other ratio curves, or a change in one channel alone; inactive = flat curves in the ratio and both channels; the % refers to the ratio; note: % is set by controls: 0 for no effect and ±100 for the full control effect; nearly all actives have a fitted effect of over 50% in size; tested in ME-180 cells; beta-lactamase reporter
Active calls of the source: *; [ ] = remark or other dose. Potency is the fitted concentration of half-maximal effect. The list is partial. The share of hits here may be higher or lower than overall.

`Cc1cc(NCCN2CCCCC2)n2c(nc3ccccc32)c1C#N` gave Anthrax LT inh 18%.
For O=C(c1ccco1)N1CCN(C(c2ccccc2Cl)c2nnnn2Cc2ccco2)CC1 (centres undefined) the results were SmPrx2 inh >57 and Anthrax LT inh inconclusive.
CC(=O)N1CCC2(CC1)CC(=O)c1cc(OCC(=O)NCc3ccc(C)cc3)ccc1O2 was read as SmPrx2 inh >57 and Anthrax LT inh 7%.
`Cn1c(=O)c2c(-c3ccccc3)n(-c3ccccc3O)cc2n(C)c1=O` gave SmPrx2 inh >57 and Anthrax LT inh -19%.
`CCn1cnc2sc(C(=O)N(Cc3ccc(N(C)C)cc3)Cc3ccco3)c(C)c2c1=O` gave SmPrx2 inh >57 and Anthrax LT inh -12%.
For O=C(CCN1C(=O)C2C3C=CC(C3)C2C1=O)Nc1ccc2c(c1)OCO2 (centres undefined) the results were SmPrx2 inh >57 and Anthrax LT inh inconclusive.
`N#Cc1cc(-c2ccccc2)oc1NC(=O)c1ccco1` gave SmPrx2 inh >57 and Anthrax LT inh inconclusive.
For O=C1C2C3CCCC3=C3CCCC3C2C(=O)N1c1ccccc1 (centres undefined) the results were Anthrax LT inh inconclusive.
Screening O=C(c1cc(-c2ccncc2)nc2ccccc12)N1CCN(c2ccc(N3CCOCC3)nn2)CC1 returned SmPrx2 inh >57 and Anthrax LT inh -6%.
COc1cccc(NC(=O)CN(c2cccc(C(F)(F)F)c2)S(C)(=O)=O)c1 was read as SmPrx2 inh >57 and Anthrax LT inh -1%.
`Cc1ccc2c(c1)NC(=O)C(CC(=O)O)O2` (centres undefined) gave SmPrx2 inh >57 and Anthrax LT inh -2%.
`Nc1nc(-c2ccc(Cl)cc2)nn1C(=O)c1cccnc1` gave SmPrx2 inh >57 and Anthrax LT inh inconclusive.
For O=c1onc2n1-c1cc(Br)ccc1OC2 the results were SmPrx2 inh >57 and Anthrax LT inh inconclusive.
For CC1=C(C(=O)NC(C)c2ccc3c(c2)OCCO3)C2(CCC(C)CC2)OC1=O (centres undefined) the results were SmPrx2 inh >57 and Anthrax LT inh -8%.
`CCOC(=O)c1c(NS(=O)(=O)c2cccc(OC)c2)sc2c1CCC2` gave SmPrx2 inh >57 and Anthrax LT inh inconclusive.
For Cn1cc(S(=O)(=O)Nc2ccc(F)cc2F)c(=O)n(C)c1=O the results were SmPrx2 inh >57 and Anthrax LT inh 5%.
CCOC(=O)N1CCC(NC(=O)c2cc(C)c3c(C)nn(-c4ccccc4)c3n2)CC1 was read as SmPrx2 inh inconclusive and Anthrax LT inh -20%.
For CC(C)NCC(O)COc1c(F)cc(Br)cc1F (centres undefined) the results were SmPrx2 inh >57 and Anthrax LT inh -3%.
Screening O=C(NC12CC3CC(CC(C3)C1)C2)C1=COCCO1 returned SmPrx2 inh >57 and Anthrax LT inh -13%.
For COc1ccc(CC(=O)Nc2cc(C)on2)cc1 the results were SmPrx2 inh >57 and Anthrax LT inh -16%.

Brought forward from above: two compounds; new compounds follow.
Screening O=C(NC12CC3CC(CC(C3)C1)C2)C1=COCCO1 returned SmPrx2 inh >57 and Anthrax LT inh -13%.
For COc1ccc(CC(=O)Nc2cc(C)on2)cc1 the results were SmPrx2 inh >57 and Anthrax LT inh -16%.
`CC1(C)OCC(CSC2=C(SCC3COC(C)(C)O3)C(=O)c3ncccc3C2=O)O1` (centres undefined) gave Anthrax LT inh inconclusive.
Screening N#CCCn1c(=O)cnc2cnc(Oc3cccc(Cl)c3)nc21 returned SmPrx2 inh >57 and Anthrax LT inh -17%.
Screening Cn1c(CCC(=O)Nc2ccc(N3CCOCC3)cc2)nc(=O)c2ccccc21 returned SmPrx2 inh >57 and Anthrax LT inh 11%.
COc1cc(NC2c3ccccc3C(=O)N2c2ccc(C)cn2)cc(OC)c1OC (centres undefined) was read as SmPrx2 inh >57 and Anthrax LT inh 6%.
`COc1cccc(Nc2ncc3ncc(=O)n(Cc4ccc(F)cc4)c3n2)c1` gave SmPrx2 inh >57 and Anthrax LT inh inconclusive.
COc1ccc2[nH]cc(CCNc3ccnc(-c4ccoc4)n3)c2c1 was read as SmPrx2 inh >57 and Anthrax LT inh inconclusive.
COc1ccc(CC(=O)NCc2cn3ccsc3n2)cc1 was read as SmPrx2 inh >57 and Anthrax LT inh 6%.
Screening COc1ccc(OC)c(NC(=O)C2CCCC2)c1 returned SmPrx2 inh >57 and Anthrax LT inh 0%.
`Cn1c(=O)c2c(nc(/C=C\c3cccc(Cl)c3)n2C)n(C)c1=O` gave SmPrx2 inh >57 and Anthrax LT inh -3%.
CC1=C(C)CC(C(=O)c2ccccc2)C(C(=O)O)C1 (centres undefined) was read as SmPrx2 inh >57 and Anthrax LT inh 2%.
`O=C(c1ccc(Br)o1)N1CCN(C/C=C/c2ccccc2)CC1` gave SmPrx2 inh >57 and Anthrax LT inh 1%.
For COc1ccccc1CC1(C)NC(=O)N(CC(=O)N2CCc3ccccc3C2)C1=O (centres undefined) the results were SmPrx2 inh >57 and Anthrax LT inh -6%.
Screening CCn1cc(S(=O)(=O)CC(=O)Nc2ccc(C)cc2)c2ccccc21 returned SmPrx2 inh >57 and Anthrax LT inh 3%.
Screening CCOC(=O)CCNCC1COc2ccccc2O1 (centres undefined) returned SmPrx2 inh >57 and Anthrax LT inh -11%.
`CCCn1c(=NC(=O)c2ccncc2)c(C#N)cc2c(=O)n3cccc(C)c3nc21` gave SmPrx2 inh >57 and Anthrax LT inh 16%.
Screening O=c1c2ccccc2nc2n1-c1ccccc1CCC2 returned SmPrx2 inh >57 and Anthrax LT inh -9%.
`CCN(Cc1ccccc1)S(=O)(=O)c1ccc(S(=O)(=O)N2CCN(C)CC2)cc1` gave SmPrx2 inh >57 and Anthrax LT inh inconclusive.
`O=C(CCS(=O)(=O)c1ccc(Cl)cc1)N1CCN(c2ccccc2F)CC1` gave SmPrx2 inh >57 and Anthrax LT inh -5%.
COc1ccc(CNC(=O)C2CCN(c3nccs3)CC2)cc1 was read as SmPrx2 inh >57 and Anthrax LT inh inconclusive.
For CCOC(=O)c1oc2ccccc2c1CN1CCOCC1 the results were SmPrx2 inh >57 and Anthrax LT inh -8%.

2 compounds drawn at random from those above, as already listed:
COc1cc(NC2c3ccccc3C(=O)N2c2ccc(C)cn2)cc(OC)c1OC (centres undefined) was read as SmPrx2 inh >57 and Anthrax LT inh 6%.
`COc1cccc(Nc2ncc3ncc(=O)n(Cc4ccc(F)cc4)c3n2)c1` gave SmPrx2 inh >57 and Anthrax LT inh inconclusive.

Among those listed so far, these contain a thiophene ring, fused or not:
`CCn1cnc2sc(C(=O)N(Cc3ccc(N(C)C)cc3)Cc3ccco3)c(C)c2c1=O` gave SmPrx2 inh >57 and Anthrax LT inh -12%.
`CCOC(=O)c1c(NS(=O)(=O)c2cccc(OC)c2)sc2c1CCC2` gave SmPrx2 inh >57 and Anthrax LT inh inconclusive.

Following part:
`CC(CCc1ccccc1)NC(=O)c1ccc(Br)o1` (centres undefined) gave SmPrx2 inh >57 and Anthrax LT inh -8%.
O=C(O)CSc1nnc(-c2cccnc2)n1Cc1ccccc1 was read as SmPrx2 inh >57 and Anthrax LT inh 1%.
`CSCCC(NC(=O)c1ccc(=O)n(C)n1)c1nc2ccccc2[nH]1` (centres undefined) gave SmPrx2 inh >57 and Anthrax LT inh 9%.
Cc1cc2nc(C)n(CCCN)c2cc1C was read as SmPrx2 inh >57 and Anthrax LT inh -1%.
COc1ccc(S(=O)(=O)N2CCC(C(=O)N3CCCC3)CC2)cc1Cl was read as SmPrx2 inh >57.
For COCCCn1cnc2oc3nc4ccccc4nc3c2c1=O the results were SmPrx2 inh >57 and Anthrax LT inh -4%.
CCCCNC(=O)c1ccccc1C(=O)NCCCC was read as SmPrx2 inh >57 and Anthrax LT inh -3%.
For COc1ccc(OC)c(CCNC(=O)CN2C(=O)CC(C)(C)S(=O)(=O)c3ccccc32)c1 the results were SmPrx2 inh >57 and Anthrax LT inh -4%.
Screening O=C(C1CCCO1)N(Cc1ccccc1)c1ccccc1 (centres undefined) returned SmPrx2 inh >57 and Anthrax LT inh 4%.
`O=C(c1oc2ccccc2c1N1CCCCC1)N1CCCCC1` gave SmPrx2 inh >57 and Anthrax LT inh 3%.
For CCOCCCNC(=O)C1CCN(S(=O)(=O)N(CC(C)C)CC(C)C)CC1 the results were SmPrx2 inh >57 and Anthrax LT inh 3%.
For Cc1ccc(-n2nc(C)c3c2OC(N)=C(C#N)C3c2ccoc2)cc1 (centres undefined) the results were SmPrx2 inh inconclusive and Anthrax LT inh 9%.
`Cc1ccc(S(=O)(=O)N(C)CCCC(=O)N2CCN(C=O)CC2)cc1` gave SmPrx2 inh >57 and Anthrax LT inh 1%.
For CC(C)CNc1cc(Cl)c(S(=O)(=O)NCC(C)C)cc1C(=O)O the results were Anthrax LT inh -3%.
Screening Cc1cc(Cl)c(S(=O)(=O)NCc2ccncc2)cc1OCC(N)=O returned SmPrx2 inh >57 and Anthrax LT inh 0%.
For Cc1cc(C)n(Cc2nc3ccccc3n2C)n1 the results were Anthrax LT inh -6%.
`CSc1ccc(-c2nnn(CC(=O)NCc3ccccc3)n2)cc1` gave SmPrx2 inh >57 and Anthrax LT inh 0%.
COC(=O)[C@@]1(Cc2ccccc2)[C@H]2c3cc(C(=O)N(C)C)n(Cc4ccccn4)c3C[C@H]2CN1C(=O)c1ccccc1 was read as SmPrx2 inh >57 and Anthrax LT inh 3%.
Screening CCOC(=O)CN(C(=O)CSc1nnc(-c2cccc(OC)c2)o1)c1ccc(F)cc1 returned SmPrx2 inh >57 and Anthrax LT inh -9%.
`Cc1cccc(CNc2ncnc3ccc(-c4cccnc4)cc23)c1` gave SmPrx2 inh >57 and Anthrax LT inh inconclusive.

Gathered by group, those above containing a cyano group
`Cc1cc(NCCN2CCCCC2)n2c(nc3ccccc32)c1C#N` gave Anthrax LT inh 18%.
`N#Cc1cc(-c2ccccc2)oc1NC(=O)c1ccco1` gave SmPrx2 inh >57 and Anthrax LT inh inconclusive.
Screening N#CCCn1c(=O)cnc2cnc(Oc3cccc(Cl)c3)nc21 returned SmPrx2 inh >57 and Anthrax LT inh -17%.
`CCCn1c(=NC(=O)c2ccncc2)c(C#N)cc2c(=O)n3cccc(C)c3nc21` gave SmPrx2 inh >57 and Anthrax LT inh 16%.
For Cc1ccc(-n2nc(C)c3c2OC(N)=C(C#N)C3c2ccoc2)cc1 (centres undefined) the results were SmPrx2 inh inconclusive and Anthrax LT inh 9%.

Next section.
Cc1cc2ccccc2c(=O)n1CC(=O)NC1CCCCCC1 was read as SmPrx2 inh >57 and Anthrax LT inh -2%.
`Cc1ccnc(NS(=O)(=O)c2ccc(NC(=O)C3CCCNC3=O)cc2)n1` (centres undefined) gave SmPrx2 inh >57 and Anthrax LT inh -1%.
`O=C(COC(=O)CNC(=O)c1ccco1)NCCN1C(=O)CSC1=O` gave SmPrx2 inh >57 and Anthrax LT inh 10%.
For COC(=O)c1noc(-c2ccc(OC)cc2)n1 the results were SmPrx2 inh >57 and Anthrax LT inh 4%.
`COC(=O)c1sc2ccccc2c1NC(=O)c1cccs1` gave SmPrx2 inh >57 and Anthrax LT inh -19%.
N#C[C@H](c1ccccc1)N1CCCN([C@@H](C#N)c2ccccc2)C1c1ccccc1O (some centres undefined) was read as SmPrx2 inh >57 and Anthrax LT inh -4%[8 µM].
O=C(N1CCN(Cc2ccccc2)CC1)C12CC3CC(CC(C3)C1)C2 was read as SmPrx2 inh >57 and Anthrax LT inh -12%.
For C=CCn1c(/N=C/c2ccc(N(C)C)cc2)nc2ccccc21 the results were Anthrax LT inh -2%.
`CC(C)(CC(=O)N1CCN(c2ccc(Cl)cc2)CC1)CC1=NS(=O)(=O)c2ccccc2N1` gave SmPrx2 inh >57 and Anthrax LT inh inconclusive.
CCCN1C(=O)SC(CC(=O)Nc2ccccc2)C1=O (centres undefined) was read as SmPrx2 inh >57 and Anthrax LT inh 13%.
Screening O=C(NCc1ccc(Cl)cc1)c1cc(-c2ccco2)on1 returned SmPrx2 inh >57 and Anthrax LT inh -11%.
`O=C(CSC1=NC(=O)C(Cc2ccccc2)C(=O)N1)NC1CCCCC1` (centres undefined) gave SmPrx2 inh >57 and Anthrax LT inh inconclusive.
For CC(C)NC[C@H]1CCc2cc(CO)c([N+](=O)[O-])cc2N1 the results were SmPrx2 inh >57 and Anthrax LT inh 4%[3.58 µM].
For CCOC(=O)C(C)Sc1nnc(Cc2cc(=O)[nH]c(=O)[nH]2)n1-c1ccc(OCC)cc1 (centres undefined) the results were SmPrx2 inh >57 and Anthrax LT inh 1%.
`CCOC(=O)c1ccc(NS(=O)C23CC4CC(CC(C4)C2)C3)cc1` (centres undefined) gave Anthrax LT inh 16%.
`COc1ccc(CNc2ncnc3ccc(-c4c(C)noc4C)cc23)c(OC)c1` gave SmPrx2 inh >57 and Anthrax LT inh inconclusive.
`Cc1ccc(/C(O)=C2/C(=O)C(=O)N(CCN3CCOCC3)C2c2cccnc2)cc1` (centres undefined) gave SmPrx2 inh >57 and Anthrax LT inh 11%.
Screening CC(C)C[C@@H](CC(=O)N[C@@H](CCC(=O)O)CC(=O)O)NC(=O)[C@@H]1CCCC[C@H]1NC(=O)C[C@@H](NC(=O)C[C@H](CO)NC(=O)[C@@H]1CCCC[C@H]1N)C(C)C returned SmPrx2 inh >26 and Anthrax LT inh -12%.
Screening C[C@@H](C(=O)NCCc1c[nH]c2ccccc12)[C@H]1C[C@]1(C)[C@H](NC(=O)OCc1ccccc1)c1ccccc1 returned SmPrx2 inh >57 and Anthrax LT inh -1%.
Screening CN(C(=O)OCc1ccccc1)C(CC(N)=O)C(=O)O (centres undefined) returned Anthrax LT inh -4%.
